KCNQ2 inh – KCNQ2 channel blockers in CHO-K1 cells – cell-based, FluxOR thallium flux, B-score, primary screen (AID 2156); O88943; 20 min; active compounds read low; only compounds with negative scores are shown here; some inactives read as strong as hits; hit rate 1.1% among 310,000; B-score at 10 µM;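 active = fluorescence ratio B-score at most minus 3 library SDs, with starting brightness B-score within 2 library SDs, cut at about -5.5 in these data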
Target sequence (O88943 whole entry, looked up): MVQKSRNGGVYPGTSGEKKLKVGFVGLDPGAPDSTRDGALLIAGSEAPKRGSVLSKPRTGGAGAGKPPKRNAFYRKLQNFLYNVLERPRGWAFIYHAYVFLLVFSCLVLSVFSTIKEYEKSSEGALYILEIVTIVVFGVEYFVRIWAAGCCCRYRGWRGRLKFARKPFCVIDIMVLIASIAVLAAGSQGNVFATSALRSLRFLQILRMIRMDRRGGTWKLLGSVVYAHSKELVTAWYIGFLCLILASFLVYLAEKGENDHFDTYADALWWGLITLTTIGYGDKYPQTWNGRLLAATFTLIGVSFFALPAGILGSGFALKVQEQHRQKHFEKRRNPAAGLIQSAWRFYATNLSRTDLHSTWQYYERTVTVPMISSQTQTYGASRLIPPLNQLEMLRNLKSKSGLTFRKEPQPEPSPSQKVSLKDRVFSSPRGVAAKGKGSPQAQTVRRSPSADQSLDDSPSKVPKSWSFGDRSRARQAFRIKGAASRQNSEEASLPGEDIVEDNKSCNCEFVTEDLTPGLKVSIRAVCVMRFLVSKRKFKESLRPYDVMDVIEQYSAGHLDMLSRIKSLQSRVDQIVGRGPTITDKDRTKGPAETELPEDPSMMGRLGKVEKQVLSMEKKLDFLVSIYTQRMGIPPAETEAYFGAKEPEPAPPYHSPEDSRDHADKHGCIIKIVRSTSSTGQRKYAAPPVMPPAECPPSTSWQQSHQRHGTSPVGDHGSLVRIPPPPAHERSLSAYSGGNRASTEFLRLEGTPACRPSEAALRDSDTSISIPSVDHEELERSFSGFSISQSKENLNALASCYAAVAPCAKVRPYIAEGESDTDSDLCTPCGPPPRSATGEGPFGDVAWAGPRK
KCNQ2 inh baseline – recorded beside KCNQ2 inh, whose call it bears; B-score; measured here: initial fluorescence intensity artifact check;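 brightness before thallium and not channel activity; 0 = typical well and far values either way flag optical interference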
Starred values were filed as active, the others as inactive.

Screening Cc1ccccc1S(=O)(=O)Cc1ccc(C(=O)NCCCN2CCCC2)o1 returned KCNQ2 inh inactive and KCNQ2 inh baseline -0.65.
For C/C=C\C=C/C(=O)Nc1cccc(C2=NOC3(C2)C[C@H](C(N)=O)N(C(=O)Cc2ccc([N+](=O)[O-])cc2)C3)c1 (stereo not given in full) the results were KCNQ2 inh inactive and KCNQ2 inh baseline -1.6.
Screening CCC(c1nnc(SCC(=O)Nc2nnc(-c3ccccc3)o2)n1Cc1ccccc1)N(C)C (stereo not given) returned KCNQ2 inh inactive and KCNQ2 inh baseline 0.05.
Cc1ccc(NC(=O)c2ccc(Cl)c(N3C(=O)C=CC3=O)c2)cc1 was read as KCNQ2 inh inactive and KCNQ2 inh baseline -1.4.
Screening CC1=C(C(=O)OCc2ccc3c(c2)OCO3)C(c2ccc(F)cc2)NC(=O)N1 (stereo not given) returned KCNQ2 inh inactive and KCNQ2 inh baseline 2.
`CCN(CC)c1ccc(/C=N/NC(=O)Cc2ccc(OC)c(OC)c2)cc1` gave KCNQ2 inh inactive and KCNQ2 inh baseline -3.2.
Cc1ccc(-c2nnc(Nc3ccc4c(c3)OCO4)c3ccccc23)cc1S(N)(=O)=O was read as KCNQ2 inh inactive and KCNQ2 inh baseline 0.01.
CCCOc1ccc(/C=C/C(=O)NC2CCCCC2)cc1 was read as KCNQ2 inh inactive and KCNQ2 inh baseline 0.14.
Cc1onc(-c2ccccc2Cl)c1C(=O)N1CCCCC1C (stereo not given) was read as KCNQ2 inh inactive and KCNQ2 inh baseline 3.4.
`CC(=O)CCc1ccc(OCC(O)CNC2CCCc3ccccc32)cc1` (stereo not given) gave KCNQ2 inh inactive and KCNQ2 inh baseline 1.3.
For O=C(COc1ccccc1)N/N=C/c1ccc([N+](=O)[O-])o1 the results were KCNQ2 inh inactive and KCNQ2 inh baseline 0.16.
For COc1cc(/C=C2\C(=O)ON=C2c2ccc(Cl)cc2)ccc1O the results were KCNQ2 inh inactive and KCNQ2 inh baseline 0.8.
Cc1cc(C)n2nc(C(=O)OCC(=O)N3CC(C)CC(C)C3)nc2n1 (stereo not given) was read as KCNQ2 inh inactive and KCNQ2 inh baseline 1.1.
Screening Cc1ccc(N=C/C(C(=O)C(F)(F)F)=C(\O)c2ccco2)cc1Cl returned KCNQ2 inh inactive and KCNQ2 inh baseline -0.24.
`Cc1occc1-c1nnc(SCC(=O)NC2CCCC2)n1C` gave KCNQ2 inh inactive and KCNQ2 inh baseline -1.4.
`Cc1ccc(NC(=O)C2CCN(c3cnccn3)CC2)cc1C` gave KCNQ2 inh inactive and KCNQ2 inh baseline -1.8.
COc1ccc(N2CC(NC(=O)NCC(C)C)CC2=O)cc1 (stereo not given) was read as KCNQ2 inh inactive and KCNQ2 inh baseline 1.1.
Screening CS(=O)(=O)N(CCc1ccccc1)CC(=O)N1CCCCC1 returned KCNQ2 inh inactive and KCNQ2 inh baseline 0.52.
Screening O=C(O)c1ccc(/C=N/N2CCN(Cc3ccccc3)CC2)cc1 returned KCNQ2 inh inactive and KCNQ2 inh baseline 1.9.
Cc1cc(C)c(S(=O)(=O)Nc2ccccc2-c2ccccc2)c(C)c1 was read as KCNQ2 inh inactive and KCNQ2 inh baseline -0.86.
Screening Cc1onc(-c2ccccc2Cl)c1C(=O)NCc1ccccc1F returned KCNQ2 inh inactive and KCNQ2 inh baseline 3.1.
`Cc1nc2sc(C(c3cccc(F)c3)N3CCCCC3)c(O)n2n1` (stereo not given) gave KCNQ2 inh inactive and KCNQ2 inh baseline 1.3.
Screening CCC1=NN(C(=O)c2cccc([N+](=O)[O-])c2)C(O)(c2ccc(C)cc2)C1 (stereo not given) returned KCNQ2 inh inactive and KCNQ2 inh baseline 0.56.
For O=C(CN(CC1CCCO1)S(=O)(=O)c1ccc(S(=O)(=O)NC2CC2)cc1)Nc1ccccc1 (stereo not given) the results were KCNQ2 inh inactive and KCNQ2 inh baseline -1.9.
Screening Cc1cc(C)c(OCC(=O)N(Cc2ccc(N(C)C)cc2)C2CCS(=O)(=O)C2)c(C)c1 (stereo not given) returned KCNQ2 inh inactive and KCNQ2 inh baseline 0.64.
Screening O=C(C(c1ccccc1)c1ccccc1)N1CCCc2ccccc21 returned KCNQ2 inh inactive and KCNQ2 inh baseline 0.55.
CCC(C(=O)NC1CCCC1)n1nc(C)n2c(cc3occc32)c1=O (stereo not given) was read as KCNQ2 inh inactive and KCNQ2 inh baseline 0.73.
For O=C(NCC(c1ccco1)N1CCc2ccccc2C1)c1ccccc1 (stereo not given) the results were KCNQ2 inh inactive and KCNQ2 inh baseline 0.15.
CC1Cc2cc(/C(O)=C3/C(=O)C(=O)N(CCN4CCOCC4)C3c3cccc(Cl)c3)ccc2O1 (stereo not given) was read as KCNQ2 inh inactive and KCNQ2 inh baseline 1.1.
Screening O=C1CN(c2ccc(Br)cc2)C(=O)N1CC(=O)N1CCCc2ccccc21 returned KCNQ2 inh inactive and KCNQ2 inh baseline -0.33.

The closing 6 records of the part before lead into the next.
Screening Cc1cc(C)c(OCC(=O)N(Cc2ccc(N(C)C)cc2)C2CCS(=O)(=O)C2)c(C)c1 (stereo not given) returned KCNQ2 inh inactive and KCNQ2 inh baseline 0.64.
Screening O=C(C(c1ccccc1)c1ccccc1)N1CCCc2ccccc21 returned KCNQ2 inh inactive and KCNQ2 inh baseline 0.55.
CCC(C(=O)NC1CCCC1)n1nc(C)n2c(cc3occc32)c1=O (stereo not given) was read as KCNQ2 inh inactive and KCNQ2 inh baseline 0.73.
For O=C(NCC(c1ccco1)N1CCc2ccccc2C1)c1ccccc1 (stereo not given) the results were KCNQ2 inh inactive and KCNQ2 inh baseline 0.15.
CC1Cc2cc(/C(O)=C3/C(=O)C(=O)N(CCN4CCOCC4)C3c3cccc(Cl)c3)ccc2O1 (stereo not given) was read as KCNQ2 inh inactive and KCNQ2 inh baseline 1.1.
Screening O=C1CN(c2ccc(Br)cc2)C(=O)N1CC(=O)N1CCCc2ccccc21 returned KCNQ2 inh inactive and KCNQ2 inh baseline -0.33.
Screening CCCCCNC1=CC(=O)CC(c2ccccc2)C1 (stereo not given) returned KCNQ2 inh inactive and KCNQ2 inh baseline 0.13.
`CC(=O)c1ccc(N2CCN(CC(=O)Nc3cc(C)on3)CC2)cc1` gave KCNQ2 inh inactive and KCNQ2 inh baseline -0.02.
Screening O=C(O)c1sccc1Oc1ccc(F)cc1[N+](=O)[O-] returned KCNQ2 inh inactive and KCNQ2 inh baseline -0.49.
COc1ccc(-n2ncc3c(NCc4ccc5c(c4)OCO5)ncnc32)cc1 was read as KCNQ2 inh inactive and KCNQ2 inh baseline -1.7.
CCN(Cc1ccccc1)S(=O)(=O)c1ccc(OC)cc1 was read as KCNQ2 inh inactive and KCNQ2 inh baseline 0.28.
`CNC(=O)c1cc2c(s1)CCCCCC2` gave KCNQ2 inh inactive and KCNQ2 inh baseline 0.8.
Screening CCOc1ccccc1N1CCN(C(=O)NC(C)c2ccc(F)c(F)c2)CC1 (stereo not given) returned KCNQ2 inh inactive and KCNQ2 inh baseline -0.86.
For CCCc1nnc(NC(=O)CN2C(=O)C3C4C=CC(C4)C3C2=O)s1 (stereo not given) the results were KCNQ2 inh inactive and KCNQ2 inh baseline -0.19.
Screening CCOC(=O)c1ccc(NC(=O)CCc2c(C)nc3ncnn3c2C)cc1 returned KCNQ2 inh inactive and KCNQ2 inh baseline 0.62.
`O=Nc1c(O)c2ccccc2c2ccccc12` gave KCNQ2 inh inactive and KCNQ2 inh baseline 0.2.
CC(C)C(=O)Nc1nnc(S(=O)(=O)N2CCc3ccccc32)s1 was read as KCNQ2 inh inactive and KCNQ2 inh baseline -2.2.
For CCOc1ccccc1OCCOCCOc1c(Cl)cccc1Cl the results were KCNQ2 inh inactive and KCNQ2 inh baseline 0.46.
`CSC1=NC(C)(C)C=C(/C=C/c2ccc(Cl)cc2)N1` gave KCNQ2 inh inactive and KCNQ2 inh baseline -0.5.
Cc1cc(Oc2ccc(Cl)cc2)nc(-c2ccccc2O)n1 was read as KCNQ2 inh inactive and KCNQ2 inh baseline 1.7.
`Cc1ccc(S(=O)(=O)CCC(=O)OC(C)C(=O)NC2CCCCC2C)cc1` (stereo not given) gave KCNQ2 inh inactive and KCNQ2 inh baseline 0.01.
O=C(NC1CCCCC1)C(=S)NCCc1ccccc1 was read as KCNQ2 inh inactive and KCNQ2 inh baseline -2.2.
`CC(C)(C)c1ccc(S(=O)(=O)N2CC(C(=O)O)Oc3ccc(Cl)cc32)cc1` (stereo not given) gave KCNQ2 inh inactive and KCNQ2 inh baseline -0.08.
Screening COc1cc(C(=O)OCC#N)ccc1OCc1c(C)noc1C returned KCNQ2 inh inactive and KCNQ2 inh baseline -0.81.
Screening CCOCCCNC(=O)c1ccc2c(=O)n(Cc3ccc(OC)cc3)c(=O)[nH]c2c1 returned KCNQ2 inh inactive and KCNQ2 inh baseline 0.11.
For CC1(C)Oc2ccc3ccc(=O)oc3c2/C(=C/NNC(N)=O)C1=O the results were KCNQ2 inh inactive and KCNQ2 inh baseline -0.71.
O=[N+]([O-])c1ccc(OCCn2cncn2)cc1 was read as KCNQ2 inh inactive and KCNQ2 inh baseline -0.75.
Cc1ccc(C2=NOC(C)(c3nnc(-c4ccccc4)o3)C2)cc1 (stereo not given) was read as KCNQ2 inh inactive and KCNQ2 inh baseline 0.46.
CCOC(=O)C(CCCOc1ccc(C(C)CC)cc1)C(=O)OCC (stereo not given) was read as KCNQ2 inh inactive and KCNQ2 inh baseline -0.31.
O=c1nc(N2CCOCC2)ccn1-c1nc(-c2ccccc2)sc1-c1ccccc1 was read as KCNQ2 inh inactive and KCNQ2 inh baseline -2.3.
`CSS(=O)(=O)c1cccc2cccnc12` gave KCNQ2 inh inactive and KCNQ2 inh baseline 0.18.
O=C(NNC(=O)c1cc(-c2cccc(Br)c2)nc2ccccc12)c1csc(N2CCOCC2)n1 was read as KCNQ2 inh inactive and KCNQ2 inh baseline -1.7.
For CCc1cc(Cn2nc(-c3ccccc3)cc2C(=O)NCc2ccccc2OC)on1 the results were KCNQ2 inh inactive and KCNQ2 inh baseline 0.28.
`O=C(NC1CCCC1)c1csc2c1CCCC2` gave KCNQ2 inh inactive and KCNQ2 inh baseline 0.15.
N#CCc1nn(-c2ccccc2)c(N)c1C#N was read as KCNQ2 inh inactive and KCNQ2 inh baseline 0.55.
Screening COc1ccc(S(=O)(=O)CCc2nnc(NC(=O)c3ccc(F)cc3)s2)cc1 returned KCNQ2 inh inactive and KCNQ2 inh baseline -1.
For COC(=O)C1=C(CS(=O)(=O)c2ccccc2)NC(=O)NC1c1ccc(O)cc1 (stereo not given) the results were KCNQ2 inh inactive and KCNQ2 inh baseline -0.03.
For COc1cccc(NC(=O)N2CCCC2C(=O)NC2CCCCC2)c1 (stereo not given) the results were KCNQ2 inh inactive and KCNQ2 inh baseline -0.22.
`O=S(=O)(NCC1CCCO1)c1ccc(Cl)nc1` (stereo not given) gave KCNQ2 inh inactive and KCNQ2 inh baseline -0.01.
`Cc1ccc(SC[C@H](Cc2ccccc2)N2CCN(CCc3ccccc3)CCC2=O)cc1` gave KCNQ2 inh inactive and KCNQ2 inh baseline 0.36.
For CCN(CC)CCn1c(O)c(N=O)c2ccccc21 the results were KCNQ2 inh inactive and KCNQ2 inh baseline 6.4.
`CCOC(=O)c1c(C)[nH]c(C)c1C(=O)CSc1nc2ccccc2c(=O)n1-c1ccc(C)cc1` gave KCNQ2 inh inactive and KCNQ2 inh baseline 0.08.
For COc1ccc2[nH]c3c(NCCC4=CCCCC4)ncnc3c2c1 the results were KCNQ2 inh -9.1* and KCNQ2 inh baseline -0.22*.
`CCOC(=O)c1csc(NC(=O)CN2CCCCC2)n1` gave KCNQ2 inh inactive and KCNQ2 inh baseline -0.95.
Cc1nn(-c2ccccc2)c2c1c(C)c(CCC(=O)N1CCOCC1)c(=O)n2C was read as KCNQ2 inh inactive and KCNQ2 inh baseline 0.03.
Screening Cc1ccc(-c2cc(-c3ccccc3)nc(N/N=C/c3cccnc3)n2)cc1 returned KCNQ2 inh inactive and KCNQ2 inh baseline 0.58.
Screening COCCCn1cc(C(=O)c2cc(Br)ccc2O)cc(C#N)c1=O returned KCNQ2 inh inactive and KCNQ2 inh baseline -0.15.
Screening CCCC1Cc2nc(N3CCCCC3)c(C#N)cc2CO1 (stereo not given) returned KCNQ2 inh inactive and KCNQ2 inh baseline -1.5.
`Cc1ccc(CNC(=O)Cc2ccc(-n3cccc3)cc2)cc1` gave KCNQ2 inh inactive and KCNQ2 inh baseline 0.66.
For O=C(Cn1cc([N+](=O)[O-])cn1)N1CCc2ccccc21 the results were KCNQ2 inh inactive and KCNQ2 inh baseline 0.58.
CCC(=O)N(Cc1cc2ccc(C)cc2n2nnnc12)C1CCCCC1 was read as KCNQ2 inh inactive and KCNQ2 inh baseline -0.88.
Screening CSc1ncccc1C(=O)NC(C)CCc1ccccc1 (stereo not given) returned KCNQ2 inh inactive and KCNQ2 inh baseline 2.8.
For CCOC(=O)c1c2c(n(C)c1C)C(=O)C(=O)c1ccc(Br)cc1-2 the results were KCNQ2 inh inactive and KCNQ2 inh baseline 0.04.
`CCN(Cc1ccccc1)C(=O)C(C)OC(=O)c1cc(S(=O)(=O)Nc2c(C)n(C)n(-c3ccccc3)c2=O)ccc1C` (stereo not given) gave KCNQ2 inh inactive and KCNQ2 inh baseline -1.8.

Six entries out of the list, ordered by heavy-atom count, highest first:
`CCN(Cc1ccccc1)C(=O)C(C)OC(=O)c1cc(S(=O)(=O)Nc2c(C)n(C)n(-c3ccccc3)c2=O)ccc1C` (stereo not given) gave KCNQ2 inh inactive and KCNQ2 inh baseline -1.8.
Screening Cc1ccc(-c2cc(-c3ccccc3)nc(N/N=C/c3cccnc3)n2)cc1 returned KCNQ2 inh inactive and KCNQ2 inh baseline 0.58.
CCC(=O)N(Cc1cc2ccc(C)cc2n2nnnc12)C1CCCCC1 was read as KCNQ2 inh inactive and KCNQ2 inh baseline -0.88.
Screening COCCCn1cc(C(=O)c2cc(Br)ccc2O)cc(C#N)c1=O returned KCNQ2 inh inactive and KCNQ2 inh baseline -0.15.
For CCOC(=O)c1c2c(n(C)c1C)C(=O)C(=O)c1ccc(Br)cc1-2 the results were KCNQ2 inh inactive and KCNQ2 inh baseline 0.04.
Screening CSc1ncccc1C(=O)NC(C)CCc1ccccc1 (stereo not given) returned KCNQ2 inh inactive and KCNQ2 inh baseline 2.8.

Bioassay records deposited in PubChem by Johns Hopkins Ion Channel Center.

These rows are one share of the data; count on the stated rates, not on these rows.
